# ALR H2O2 inh: inhibitors of human sulfhydryl oxidase ALR. P55789. purified ALR, DTT oxidation, H2O2 HRP-luminol luminescence. inhibition, % (concentration not given with the values). 3.8% of 290,000 active;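 active = mean and each replicate at 75% or more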;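 note: stock transfer was 7.5 nL into about 7.5 µL; 0% = neutral wells and 100% = wells with inactivated enzyme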
# Ecoli growth: E. coli growth inhibition. 0.21% of 330,000 active. Escherichia coli growth, OD600, 23 h; stronger effect = lower value. OD600 absorbance (test concentration not listed);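 active = OD600 absorbance below the run mean of sample wells minus 3.6 SD, in any replicate, cut at about 0.56 in these data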;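 note: stock transfer was 300 nL into about 60 µL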
# UCH37 inh: human UCH37 deubiquitinating enzyme inhibition. 0.33% of 330,000 active. purified proteasome/UCH37, Ub-AMC cleavage fluorescence. inhibition, % (no concentration beside the values);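 active = mean of two replicates above 20%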;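 note: 0% = compound-free wells with enzyme and 100% = wells lacking proteasome; stock transfer was 100 nL into about 20 µL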
# Target sequence (Q9Y5K5 whole entry, looked up): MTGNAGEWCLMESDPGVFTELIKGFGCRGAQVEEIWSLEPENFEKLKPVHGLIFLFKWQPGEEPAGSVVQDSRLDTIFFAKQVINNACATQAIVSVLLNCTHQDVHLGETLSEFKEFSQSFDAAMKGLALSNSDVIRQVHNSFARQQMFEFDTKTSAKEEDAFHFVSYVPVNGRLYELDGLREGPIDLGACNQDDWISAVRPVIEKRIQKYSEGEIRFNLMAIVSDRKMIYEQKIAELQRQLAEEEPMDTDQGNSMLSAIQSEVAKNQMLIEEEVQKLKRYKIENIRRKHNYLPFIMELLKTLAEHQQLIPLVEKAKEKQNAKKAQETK
#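 Signal – fluorescence, ex 355 nm, em 460 nm · System – Proteasome-bound UCH37 · Input – 0.15 nM proteasome as dispensed · Timing – 30 min preincubation with enzyme, 25 min cleavage at room temperature · Read-out basis – percent inhibition of cleavage signal versus uninhibited and no-proteasome wells · Medium – Tris-HCl pH 7.4 with ATP-MgCl2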
# FGF22 binding: binders of recombinant human FGF22 by thermal shift | Q9HCT0 | SYPRO orange fluorescence; percent of sucrose octasulfate shift, DMSO zero | calls only at 9.99 µM | 1.5% of 340,000 active | AID 651658;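 active = melting point raised past a set limit in the mean and every replicate; three in four hits are not shown here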
# Target sequence (Q9HCT0 whole entry, looked up): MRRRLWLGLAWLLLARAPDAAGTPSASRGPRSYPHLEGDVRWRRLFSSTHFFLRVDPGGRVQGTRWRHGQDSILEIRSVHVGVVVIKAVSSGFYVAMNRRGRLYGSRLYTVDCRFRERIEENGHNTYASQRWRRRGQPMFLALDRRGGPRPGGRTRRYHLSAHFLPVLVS
# HNF4A DNA FP: change in binding of human HNF4 alpha to DNA; HNF4a-FITC DNA binding, fluorescence polarization, 1 h; activity change, % at 10 µM; 0.3% of 360,000 active; AID 1224865; in the data active = activity change above about 30%, passing the limit was not always enough;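 note: controls were the assay level and a saturating level of protein; the project sought stronger binding though the title names inhibitors; some compounds called inactive have numbers as strong as hits; positive values seem to mean higher polarization but the record does not say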
# LANA-H2B inh: blocks KSHV LANA binding to histone H2A/H2B; cell-free LANA-H2A/H2B peptide, fluorescence polarization; inhibition, % (no concentration beside the values); 0.6% of 320,000 active; AID 2629; in the data active = inhibition mostly above about 10%, no sharp cut-off; inactive = mostly below about 6.7%;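 note: stock transfer was 7.5 nL into about 10 µL; 0% = median of vehicle wells and 100% = median of positive control wells; one replicate is shown; the record names a cut of 25% in any replicate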
# Beta2AR agonist: activates human beta-2 adrenergic receptor causing internalization; P07550; 0.43% of 340,000 active; AID 504454; Am2.2-beta2AR cells, FAP receptor internalization, flow cytometry; reference of the scale not given here; response, % (concentration not given with the values);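 active = response above a set limit, near 3 SD of response in nonfluorescent compounds, cut at about 42% in these data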;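 note: stock transfer was 100 nL into about 11 µL; a reference agonist was the positive control; negative values mostly stem from fluorescent compounds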
# Target sequence (P07550 whole entry, looked up): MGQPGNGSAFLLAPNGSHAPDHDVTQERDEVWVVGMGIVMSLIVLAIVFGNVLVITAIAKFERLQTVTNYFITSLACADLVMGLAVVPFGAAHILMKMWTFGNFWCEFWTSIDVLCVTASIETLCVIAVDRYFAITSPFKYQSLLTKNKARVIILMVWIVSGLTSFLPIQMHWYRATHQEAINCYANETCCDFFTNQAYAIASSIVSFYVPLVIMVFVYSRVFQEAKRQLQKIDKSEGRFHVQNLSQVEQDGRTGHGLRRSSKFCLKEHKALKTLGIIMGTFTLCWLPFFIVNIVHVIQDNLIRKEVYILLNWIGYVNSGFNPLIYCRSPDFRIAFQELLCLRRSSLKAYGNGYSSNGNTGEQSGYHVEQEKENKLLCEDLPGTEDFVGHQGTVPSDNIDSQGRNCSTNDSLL
# Numbers without * were called inactive; i = inactive; x = no result given. Not all compounds are listed; the hit share may differ from the screen's.
SMILES	Beta2AR agonist	LANA-H2B inh	UCH37 inh	HNF4A DNA FP	FGF22 binding	Ecoli growth	ALR H2O2 inh
CCN(CC)NC(=O)Nc1ccccc1	-1.8	1.4	5.7	-5.5	i	0.728	-1.3
O=S(=O)(Nc1cc(S(=O)(=O)N2CCOCC2)ccc1O)c1ccc2c(c1)OCCCO2	0.0	x	3.4	-2.9	i	0.707	18.6
O=C(Nc1ccc(N2CCOCC2)c(Cl)c1)c1ccc(-n2cnnc2)cc1Cl	-5.0	-2.5	6.8	1.4	i	0.709	-1.3
O=C1Nc2cc(S(=O)(=O)N3CCCC3)ccc2N2CCCC12 (stereo unspecified)	4.7	-0.1	-1.0	7.7	x	0.693	-12.2
O=C(CN1CCN(c2ccccc2F)CC1)N1CCc2ccccc21	-4.1	4.0	1.5	-0.2	i	0.667	-2.4
CC(C)c1ccc(CSc2ccc(S(=O)(=O)N3CCOCC3)cn2)cc1	1.4	-0.7	5.5	-4.5	i	0.633	-2.0
COc1ccc(CNC(=O)CCN2C(=O)[C@@H]3Cc4ccccc4CN3C2=O)cc1	3.7	1.5	1.9	7.9	i	0.612	1.6
C/C(=N\NC(=O)c1ccc(CSc2nc(C)cc(C)n2)cc1)C1CCCCC1	-7.0	-2.0	x	3.2	x	x	39.5
CCOc1cc(-c2cc(-c3ccc(C)cc3)nc(N)c2C#N)ccc1O	-7.8	7.2	-113.0	3.8	x	0.713	44.2
COc1ccc(-n2c(SCC(N)=O)nnc2-c2ccco2)cc1	-7.1	-3.5	2.7	0.7	i	0.721	-8.4
Cc1ccc([N+](=O)[O-])cc1NC(=O)Cc1cccs1	-1.5	-21.6	4.1	-17.9	i	0.708	-0.8
CCNS(=O)(=O)c1ccc(CCC(=O)NCc2ccccn2)cc1	-5.9	-4.4	3.1	-3.0	i	0.696	x
C#CCn1cnc2c(cnn2-c2ccc(C)c(C)c2)c1=O	5.6	2.5	-3.0	2.4	x	0.676	3.6
O=C(O)C(Cc1cc2ccccc2[nH]1)N1C(=O)C2CC=C(Cl)CC2C1=O (stereo unspecified)	-3.4	-3.7	7.4	-0.1	x	0.771	8.5
O=C(COC(=O)C1CC1)Nc1ccc2[nH]c(=O)[nH]c2c1	-2.2	6.2	1.9	5.5	i	0.656	-16.8
O=C1[C@H](Oc2ccccc2)[C@@H](c2ccncc2)N1c1ccncc1	-0.9	x	0.5	0.9	i	0.73	x
CCOC(=O)C1CCCN(C(=O)c2ccc3c(c2)NC(=O)C(N2CCOCC2)S3)C1 (stereo unspecified)	3.6	-11.6	1.0	2.5	x	0.723	-3.4
CNc1oc(-c2ccc(OCc3ccccc3)cc2)nc1C#N	21.0	4.0	-8.1	-0.2	x	0.75	-2.5
Cc1ccc(-c2cc(C(=O)Nc3cccc(S(=O)(=O)N(C)C)c3)c3ccccc3n2)o1	7.4	-5.5	-244.4	2.1	i	0.676	1.3
S=C(NCc1ccccc1)NCc1ccccc1Cl	1.7	4.3	2.4	5.5	i	0.637	16.5
Nc1nc(N2CCOCC2)n[nH]1	2.0	x	1.9	-4.7	i	0.678	x
CCC1COCCS(=O)(=O)N1Cc1cccc(Cl)c1 (stereo unspecified)	2.0	5.2	2.0	-4.7	i	0.66	-1.5
COc1ccccc1NC(=O)Cc1noc(CSc2nnc(C(F)(F)F)n2C)n1	-7.0	0.1	0.7	12.4	i	0.675	-3.4
Cc1cc(Cl)ccc1OC(C)C(=O)NN1C(=O)c2ccccc2C1=O (stereo unspecified)	-6.3	-3.3	5.6	1.5	i	0.676	-3.4
CCC(C)(C)NC(=O)COc1ccc(C(=O)c2ccccc2)cc1	-3.0	-0.7	-1.9	-1.8	x	0.655	2.9
COc1cc2cc(CN(CCCN3CCOCC3)C(=O)Nc3ccccc3F)c(=O)[nH]c2cc1OC	-7.1	2.8	-117.2	-0.8	i	0.707	-6.3
COc1ccc(C(CNC(=O)c2ccc(-n3cnnn3)cc2)N2CCOCC2)cc1 (stereo unspecified)	4.3	3.1	0.3	0.9	x	0.774	-17.0
CCOC(=O)C1=C(C)N=C2c3ccccc3C(=O)C2C1c1ccccc1 (stereo unspecified)	7.4	2.1	3.9	-5.5	x	0.769	-2.5
CCOC(=O)COc1ccccc1/C=N/Nc1nnc2c3ccccc3n(C)c2n1	8.0	-9.3	x	-2.7	i	x	-16.3
COc1ccc(NS(=O)(=O)c2ccc(Cl)c(NC(=O)c3cccnc3Cl)c2)cc1	4.7	-0.1	3.0	3.5	i	0.667	-0.4
CCc1ccc(C(=O)Nc2cccc(-c3nn[nH]n3)c2)s1	0.0	-4.9	3.9	0.2	x	0.721	3.5
COc1ccc(OC)c(-c2csc(NC(=O)CSc3nnnn3C)n2)c1	1.3	1.1	-2.4	2.9	i	0.674	-3.5
CCCCNC(=O)[C@H]1C[C@H]1[C@@H](O)[C@H](CO)NC(=O)[C@H](CC(C)C)NC(=O)OC(C)(C)C	-1.9	0.1	4.2	1.0	x	x	4.4
CCOC(=O)C1=C(C)OC(N)=C(C#N)C1c1ccc(OC)c(C)c1OC (stereo unspecified)	-3.8	1.8	3.2	0.5	x	0.685	-0.8
COc1ccc(NC(=O)CSc2nnc(-c3ccoc3C)n2CCc2ccccc2)cc1	-2.2	11.5	2.4	-1.4	x	0.748	-27.1
Cc1ccc(N(Cc2ccco2)C(=O)c2ccc(N3CCCCC3)c([N+](=O)[O-])c2)cc1	0.2	-2.9	2.2	-3.6	i	0.751	-19.8
Cc1ccccc1OCC(=O)Nc1nc(C)c(C(=O)N(C)C)s1	-2.1	-2.6	5.5	1.7	x	0.681	-6.8
CCCc1ccc(Oc2coc3cc(OCC(=O)Nc4ccccc4C)ccc3c2=O)cc1	2.6	5.3	-0.1	1.3	i	0.689	1.8
O=C(Cn1cnc2ccccc21)Nc1cccc([N+](=O)[O-])c1	0.0	1.1	x	0.0	i	x	-2.3
COC(=O)CSCC(=O)Nc1nnc(-c2cccc(C)c2)s1	4.2	-1.9	-0.7	-1.4	i	0.701	11.1
CCCS(=O)(=O)c1cnc(C2COc3ccccc3O2)nc1N (stereo unspecified)	1.9	1.1	3.9	-2.7	i	0.658	-2.5
COc1ccc(C2=CC(=O)C[C@H](c3ccc4c(c3)OCO4)C2)cn1	0.5	-1.9	-0.1	1.0	i	x	0.5
O=C(NCc1ccncc1)C(=O)N/N=C/c1ccc(OCc2ccccc2)cc1	17.1	-1.3	x	8.3	i	x	x
COc1ccc2nc(N)sc2c1	12.4	4.7	5.3	5.2	x	0.709	-2.6
Cc1cc(C)cc(C(=O)NCC(=O)OCC(=O)NC2CC2)c1	2.1	-3.6	3.6	-0.1	i	0.639	-3.0
CC(C)(C)OC(=O)NCCCCCNC(=O)c1nc[nH]c1C(=O)NCCCCCNC(=O)OC(C)(C)C	19.8	1.9	1.1	4.6	i	0.699	-0.3
CCOc1ccccc1NC(=S)N(CCC(C)C)C1CCN(C(C)=O)CC1	-3.5	0.3	2.9	0.3	i	0.703	-8.1
O=C(O)c1cn(C2CCCCC2)c2ccccc2c1=O	-2.0	-3.7	-4.2	-3.5	i	0.647	-0.1
Brc1ccc(-c2nnc3sc(CN4CCN(c5ccccc5)CC4)cn23)cc1	-0.9	4.1	1.9	1.4	i	0.758	6.2
COc1cccc(NC(=O)c2cccnc2)c1	-16.8	1.9	-0.4	5.4	x	0.705	-3.6
CCC(C)NC(=O)c1ccc(CS(=O)(=O)Cc2ccc(Cl)cc2)o1 (stereo unspecified)	-2.4	-4.0	5.1	2.4	x	0.683	4.0
COc1ccc(C(=O)Oc2ccc(/C=N/Nc3ccc(Cl)c(C(=O)O)c3)cc2OC)cc1	7.3	3.5	x	-2.7	i	x	60.6
CN(C(=O)c1ccco1)c1nc2c(s1)CCCC2	-5.7	0.7	3.1	0.1	x	0.667	40.2
O=C(Nc1ccc(C(=O)NCCCN2CCCCC2)cc1)C1=CSCCO1	7.1	0.1	7.5	22.5	i	0.706	-1.6
Cc1onc(-c2ccccc2Cl)c1C(=O)OCC(=O)N1CCN(c2ccccc2)CC1	1.2	-1.8	x	-0.9	x	x	x
NC(=O)c1ccc[n+](Cc2ccccc2)c1	0.6	0.1	0.1	-0.4	x	0.64	-15.1
COc1ccc([N+](=O)[O-])cc1NC(=O)C1CCCN1S(=O)(=O)c1cccs1 (stereo unspecified)	6.2	-2.5	5.7	-0.5	x	0.681	7.5
COc1cc(Cl)c(C)cc1NC(=O)CN1C(=O)C2CCCCC2C1=O (stereo unspecified)	8.7	-5.7	0.0	7.1	i	0.709	1.5
Cc1nc(NCc2ccc3c(c2)OCO3)c2nnn(Cc3ccccc3)c2n1	-5.9	0.1	1.8	-0.6	x	0.701	-12.8
Cc1ccc(Cn2c(SC(C)C(N)=O)nc3ccccc3c2=O)cc1 (stereo unspecified)	-10.7	9.2	3.4	0.3	i	0.665	3.1

# (cont.)
SMILES	Beta2AR agonist	LANA-H2B inh	UCH37 inh	HNF4A DNA FP	FGF22 binding	Ecoli growth	ALR H2O2 inh
NC(=O)C1CCN(Cc2ccc(OCc3ccccc3)cc2)CC1	-1.2	3.9	1.4	3.0	i	0.628	-2.4
CN(C)S(=O)(=O)Oc1ccc(Cl)cc1C(=O)Nc1cccc(C(F)(F)F)c1	-3.4	5.8	6.4	8.4	x	0.726	-9.2
O=C(NC1CC1)C1=C[C@@H](c2ccc(Br)cc2)C[C@@H](OCc2ccc(CO)cc2)O1	-14.3	2.0	0.4	6.1	i	x	-2.8
COc1ccc(CCn2c(C)cc(C(=O)CN3C(=O)C(=O)N(C4CCCC4)C3=O)c2C)cc1OC	8.6	x	2.7	-4.2	i	0.64	x
CCOC(=O)N1CCN(C(=O)C2CCN(S(=O)(=O)c3ccc(Br)s3)CC2)CC1	-5.8	-3.3	1.9	2.5	x	0.687	-25.6
COC(=O)c1sc(N)c(C(=O)OC)c1CSc1nnnn1C	11.2	-8.0	8.0	0.1	x	0.741	-7.2
COc1cccc(-c2c(C#N)c(SC)nc3cc(C)nn23)c1	1.7	-4.5	-6.1	3.4	i	0.711	-3.8
CC(/C=N\N1CCN(c2ccc(Cl)cc2)CC1)=C\c1ccccc1	3.8	9.3	x	-2.3	x	x	-6.4
O=C(/C=C/c1ccc(F)cc1)N1CCN(c2ncccn2)CC1	0.0	-0.6	1.9	-0.1	i	0.638	-5.1
O=C(Nc1ccc(Cl)c(Cl)c1)Nc1ccccc1O	2.8	-7.0	3.3	-0.7	x	0.455*	23.9
COC(=O)c1cccc(CSc2nnc(C)s2)c1	-6.7	-4.5	3.1	0.3	x	0.69	-3.2
C=CCn1c(SCC(=O)NC2CCCC2)nnc1-c1cccnc1	0.7	-5.1	2.4	3.4	i	0.675	3.1
Cc1ccc(C2=NN=C(NC(=O)CSc3nc(C)cc(C)n3)SC2)cc1	x	x	3.7	x	i	0.689	x
COC(=O)c1cn(Nc2ncc(C(F)(F)F)cc2Cl)c(=O)c2ccccc12	-2.4	-2.8	-4.7	0.1	x	0.731	-32.0
COc1ccccc1C(=O)Nc1ccnn1C1CCN(C2CCSCC2)CC1	3.3	7.0	3.5	-2.0	i	0.71	-9.4
CC(=O)N1CCn2c3c(c(=O)c4cc(C)ccc42)CCC31 (stereo unspecified)	-3.3	0.0	-4.8	-2.5	x	0.677	-4.5
Cc1nc2ccc(S(=O)(=O)N(C)CC(=O)NCc3ccc(N(C)C)cc3)cc2s1	13.3	-3.1	-0.3	20.0	i	0.717	84.7*
CCOc1ccc(C(=O)N/N=C/c2ccc(-c3ccc(S(=O)(=O)Nc4ncccn4)cc3)o2)cc1	6.0	-2.4	x	-3.5	x	x	-0.2
